DUX4 inh: DUX4-mediated transcription inhibition | AID 1224904 | activity change, negative = inhibition, % (test concentration not listed) | actives 0.8% (n = 37,000) | 293T-iDUX4 ZSCAN4-Gaussia luciferase reporter, 24 h; active compounds read low;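 active = -10% or lower and over 25 points stronger than a control reporter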;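 also: 0% = median of neutral control wells and -100% = median of positive control wells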
DUX4 inh difference: also measured in DUX4 inh; calls as there; Gaussia minus Italica difference, %; measured here: selective DUX4 reporter inhibition;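 worked out from the two reporters; negative = selective loss of the DUX4 reporter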
DUX4 inh control: second read-out of DUX4 inh, no call of its own (marks repeat the call); activity change, negative = inhibition, %; measured here: Italica tet-on control reporter;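 0 = neutral control and -100 = positive control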
Numbers without * were called inactive; & = joins results of further samples. Some of the compounds tested; count on the stated rates, not on these rows.

Screening O=C(C[C@H]1CC[C@H](NC(=O)Nc2cc(F)ccc2F)[C@H](CO)O1)Nc1ccc(-c2ccccc2)cc1 returned DUX4 inh -4, DUX4 inh difference -4 and DUX4 inh control 0.2.
`O=C(c1ccccc1F)N1C[C@@H]2[C@H](c3ccccc31)[C@H](CO)N2CC1CCCCC1` gave DUX4 inh -2, DUX4 inh difference -3 and DUX4 inh control 0.6.
COCC(=O)N[C@H]1C=C[C@@H](CC(=O)N2CCCCC2)O[C@@H]1CO was read as DUX4 inh 3, DUX4 inh difference 1 and DUX4 inh control 1.8.
C[C@@H]1CN([C@@H](C)CO)C(=O)CCCn2nncc2CO[C@@H]1CN(C)C(=O)c1ccc(N2CCN(C)CC2)cc1 was read as DUX4 inh 4, DUX4 inh difference 6 and DUX4 inh control -2.2.
CN1CCN(C(=O)C[C@H]2CC[C@H]3[C@@H](COC[C@H](O)CN3S(=O)(=O)c3cccc(Cl)c3)O2)CC1 was read as DUX4 inh 4, DUX4 inh difference -7 and DUX4 inh control 11.
`C[C@@H]1CN([C@@H](C)CO)C(=O)c2ccccc2-c2ccccc2CO[C@@H]1CN(C)C(=O)Nc1ccc(-c2ccccc2)cc1` gave DUX4 inh 13, DUX4 inh difference -9 and DUX4 inh control 21.
C[C@@H]1CCCCO[C@@H](CN(C)S(=O)(=O)c2ccccc2)[C@H](C)CN([C@H](C)CO)C(=O)c2cc(NC(=O)CCC(F)(F)F)ccc2O1 was read as DUX4 inh 3, DUX4 inh difference 3 and DUX4 inh control 0.3.
For COc1ccc(S(=O)(=O)Nc2cccc3c2O[C@H](CN(C)Cc2ccc(C(F)(F)F)cc2)[C@@H](C)CN([C@@H](C)CO)C3=O)cc1 the results were DUX4 inh -2, DUX4 inh difference 0 and DUX4 inh control -1.8.
`COc1ccccc1CN1[C@@H](CO)[C@@H](c2ccccc2)C12CN(C(=O)c1ccccn1)C2` gave DUX4 inh -4, DUX4 inh difference -12 and DUX4 inh control 8.3.
Screening CO[C@H]1CN(C)C(=O)c2cc(NC(=O)C3CCCCC3)ccc2OC[C@@H](C)N(Cc2cccnc2)C[C@@H]1C returned DUX4 inh 0, DUX4 inh difference -2 and DUX4 inh control 2.4.
`COCC(=O)N1CC(=O)N2[C@@H](CO)[C@H](c3ccc(-c4ccccc4)cc3)[C@@H]2C1` gave DUX4 inh 17, DUX4 inh difference 7 and DUX4 inh control 9.3.
Screening C[C@H](O)C#Cc1ccc([C@@H]2[C@H](CO)N3CCCCN(CC4CC4)C[C@@H]23)cc1 returned DUX4 inh 4, DUX4 inh difference -5 and DUX4 inh control 9.0.
Screening CNC[C@H]1OCCCC[C@@H](C)Oc2ccc(N)cc2C(=O)N([C@H](C)CO)C[C@H]1C returned DUX4 inh -5, DUX4 inh difference -1 and DUX4 inh control -4.4.
`COc1ccc2c3c([nH]c2c1)[C@@H](CO)N(C(=O)Nc1ccc(F)cc1)CC31CN(C(=O)Nc2ccccc2)C1` gave DUX4 inh 4, DUX4 inh difference -9 and DUX4 inh control 13.
Screening O=C(Nc1ccccc1)N1C[C@H]2[C@@H](c3ccccc31)[C@H](CO)N2C(=O)Cc1ccccn1 returned DUX4 inh 1, DUX4 inh difference 4 and DUX4 inh control -2.4.
For O=C(C[C@H]1C[C@@H]2c3cc(NC(=O)NC4CCCC4)ccc3O[C@@H]2[C@@H](CO)O1)NCC1CC1 the results were DUX4 inh 8, DUX4 inh difference 7 and DUX4 inh control 0.1.
For C[C@H](CO)N1C[C@H](C)[C@@H](CN(C)C(=O)NC2CCCC2)OCc2cnnn2CCCC1=O the results were DUX4 inh 1, DUX4 inh difference 0 and DUX4 inh control 1.6.
CC=Cc1ccc2n(c1=O)C[C@@H]1[C@@H](CO)[C@H](C(=O)N(C)C)[C@H]2N1C(=O)c1ccccc1 (mixture of isomers) was read as DUX4 inh -2, DUX4 inh difference -3 and DUX4 inh control 1.3.
C[C@H]1CN([C@@H](C)CO)C(=O)c2ccccc2-c2ccccc2CO[C@H]1CN(C)C(=O)c1ccc(F)cc1 was read as DUX4 inh -10, DUX4 inh difference -7 and DUX4 inh control -2.4.
For COc1ccccc1-c1ccc([C@@H]2[C@@H](C#N)N(C(=O)C3CC3)[C@H]2CO)cc1 the results were DUX4 inh -4, DUX4 inh difference -2 and DUX4 inh control -2.2.

An excerpt from above in order of molar mass, ascending.
For COc1ccccc1-c1ccc([C@@H]2[C@@H](C#N)N(C(=O)C3CC3)[C@H]2CO)cc1 the results were DUX4 inh -4, DUX4 inh difference -2 and DUX4 inh control -2.2.
Screening C[C@H](O)C#Cc1ccc([C@@H]2[C@H](CO)N3CCCCN(CC4CC4)C[C@@H]23)cc1 returned DUX4 inh 4, DUX4 inh difference -5 and DUX4 inh control 9.0.
`COCC(=O)N1CC(=O)N2[C@@H](CO)[C@H](c3ccc(-c4ccccc4)cc3)[C@@H]2C1` gave DUX4 inh 17, DUX4 inh difference 7 and DUX4 inh control 9.3.
Screening O=C(Nc1ccccc1)N1C[C@H]2[C@@H](c3ccccc31)[C@H](CO)N2C(=O)Cc1ccccn1 returned DUX4 inh 1, DUX4 inh difference 4 and DUX4 inh control -2.4.
`COc1ccccc1CN1[C@@H](CO)[C@@H](c2ccccc2)C12CN(C(=O)c1ccccn1)C2` gave DUX4 inh -4, DUX4 inh difference -12 and DUX4 inh control 8.3.
Screening O=C(C[C@H]1CC[C@H](NC(=O)Nc2cc(F)ccc2F)[C@H](CO)O1)Nc1ccc(-c2ccccc2)cc1 returned DUX4 inh -4, DUX4 inh difference -4 and DUX4 inh control 0.2.
CN1CCN(C(=O)C[C@H]2CC[C@H]3[C@@H](COC[C@H](O)CN3S(=O)(=O)c3cccc(Cl)c3)O2)CC1 was read as DUX4 inh 4, DUX4 inh difference -7 and DUX4 inh control 11.
Screening CO[C@H]1CN(C)C(=O)c2cc(NC(=O)C3CCCCC3)ccc2OC[C@@H](C)N(Cc2cccnc2)C[C@@H]1C returned DUX4 inh 0, DUX4 inh difference -2 and DUX4 inh control 2.4.
C[C@@H]1CN([C@@H](C)CO)C(=O)CCCn2nncc2CO[C@@H]1CN(C)C(=O)c1ccc(N2CCN(C)CC2)cc1 was read as DUX4 inh 4, DUX4 inh difference 6 and DUX4 inh control -2.2.
For COc1ccc(S(=O)(=O)Nc2cccc3c2O[C@H](CN(C)Cc2ccc(C(F)(F)F)cc2)[C@@H](C)CN([C@@H](C)CO)C3=O)cc1 the results were DUX4 inh -2, DUX4 inh difference 0 and DUX4 inh control -1.8.
C[C@@H]1CCCCO[C@@H](CN(C)S(=O)(=O)c2ccccc2)[C@H](C)CN([C@H](C)CO)C(=O)c2cc(NC(=O)CCC(F)(F)F)ccc2O1 was read as DUX4 inh 3, DUX4 inh difference 3 and DUX4 inh control 0.3.

New compounds follow:
`O=C(C[C@H]1CC[C@H]2[C@@H](COC[C@H](O)CN2S(=O)(=O)c2ccccc2)O1)NCc1ccc2c(c1)OCO2` gave DUX4 inh -2, DUX4 inh difference -3 and DUX4 inh control 0.5.
CCCNC(=O)Nc1ccc2c(c1)C(=O)N(C)[C@H]1CC[C@H](CC(=O)Nc3ccc4c(c3)CCCC4)O[C@@H]1CO2 was read as DUX4 inh -5, DUX4 inh difference 0 and DUX4 inh control -4.4.
O=C(Nc1ccc(F)cc1)N1CC(=O)N2[C@@H](CO)[C@H](c3ccc(C#Cc4cccnc4)cc3)[C@@H]2C1 was read as DUX4 inh 0, DUX4 inh difference -5 and DUX4 inh control 5.0.
Screening O=C(C[C@@H]1CC[C@H]2[C@@H](COC[C@H](O)CN2CCC(F)(F)F)O1)N1CCC(Cc2ccccc2)CC1 returned DUX4 inh -5, DUX4 inh difference -1 and DUX4 inh control -4.5.
Screening CCCC#Cc1ccc([C@H]2[C@H](CO)N3C(=O)CN(C(=O)c4ccncc4)C[C@@H]23)cc1 returned DUX4 inh 5, DUX4 inh difference -7 and DUX4 inh control 13.
For CCCC#Cc1ccc([C@@H]2[C@@H](C#N)N(S(C)(=O)=O)[C@@H]2CO)cc1 the results were DUX4 inh -4, DUX4 inh difference -2 and DUX4 inh control -1.8.
For CN(C)C(=O)C[C@@H]1C[C@H]2c3cc(NS(C)(=O)=O)ccc3O[C@H]2[C@H](CO)O1 the results were DUX4 inh 9, DUX4 inh difference 7 and DUX4 inh control 2.5.
N#Cc1ccc(-c2ccc3c(c2)[C@@H]2[C@@H](CCN2C(=O)c2ccccc2F)[C@@H](CO)N3)cc1 was read as DUX4 inh -1, DUX4 inh difference 7 and DUX4 inh control -8.8.
`CC=Cc1ccc2n(c1=O)C[C@@H]1[C@@H](CO)[C@H](C(=O)N[C@H](C)c3ccccc3)[C@H]2N1Cc1ccncc1` (mixture of isomers) gave DUX4 inh 2, DUX4 inh difference -1 and DUX4 inh control 2.7.
`COCCNC(=O)C[C@H]1CC[C@@H]2[C@@H](COc3ccc(NC(=O)c4cc(C)on4)cc3C(=O)N2C)O1` gave DUX4 inh 1, DUX4 inh difference 1 and DUX4 inh control 0.3.
C[C@@H]1CN([C@@H](C)CO)C(=O)CCCn2nncc2CO[C@@H]1CN(C)S(=O)(=O)c1ccccc1C#N was read as DUX4 inh 0, DUX4 inh difference -1 and DUX4 inh control 0.9.
`C[C@@H]1CN([C@H](C)CO)C(=O)c2c(c3ccccc3n2C)-c2ccccc2CO[C@H]1CN(C)Cc1ccc(C(=O)O)cc1` gave DUX4 inh 6, DUX4 inh difference 9 and DUX4 inh control -2.9.
O=C(c1cccc(F)c1)N1C[C@H]2[C@@H](c3ccccc31)[C@H](CO)N2C(=O)Cc1ccccc1 was read as DUX4 inh 0, DUX4 inh difference -2 and DUX4 inh control 2.6.
O=C(C[C@H]1CC[C@@H](NC(=O)Nc2ccc(F)cc2)[C@H](CO)O1)NCCN1CCCC1 was read as DUX4 inh 10, DUX4 inh difference 2 and DUX4 inh control 8.1.
`C[C@@H]1CN([C@H](C)CO)C(=O)c2cc(NC(=O)C3CC3)ccc2O[C@@H]1CN(C)S(=O)(=O)c1ccccc1` gave DUX4 inh -4, DUX4 inh difference -5 and DUX4 inh control 0.2.
`C[C@H](CO)N1C[C@H](C)[C@@H](CN(C)C(=O)c2ccncc2)OCCCC[C@H](C)Oc2ccc(NS(=O)(=O)c3cn(C)cn3)cc2C1=O` gave DUX4 inh -3, DUX4 inh difference 0 and DUX4 inh control -2.7.
Screening C[C@H](NC(=O)C[C@H]1C[C@H]2c3cc(NC(=O)Nc4ccc(C(F)(F)F)cc4)ccc3O[C@H]2[C@@H](CO)O1)c1ccccc1 returned DUX4 inh 7, DUX4 inh difference 8 and DUX4 inh control -1.1.
`C[C@@H]1CN([C@H](C)CO)C(=O)c2cccc(NS(=O)(=O)c3ccccc3)c2O[C@H]1CN(C)Cc1ccc(C(=O)O)cc1` gave DUX4 inh 3, DUX4 inh difference 2 and DUX4 inh control 1.0.
For C[C@H](O)C#Cc1cnc2c(c1)C(=O)N([C@H](C)CO)C[C@H](C)[C@@H](CN(C)C(=O)CN1CCOCC1)O2 the results were DUX4 inh 4, DUX4 inh difference 2 and DUX4 inh control 2.6.
For N#C[C@@H]1[C@H](c2ccc(C3=CCCC3)cc2)[C@@H](CO)N1c1nc(-c2ccccc2)cs1 the results were DUX4 inh 2, DUX4 inh difference 1 and DUX4 inh control 1.3.
C[C@@H]1CN([C@@H](C)CO)C(=O)CCCn2nncc2CO[C@H]1CN(C)C(=O)CCC(F)(F)F was read as DUX4 inh 5, DUX4 inh difference 1 and DUX4 inh control 4.3.
CCNC(=O)[C@@H]1[C@@H](CO)[C@@H]2Cn3c(ccc(-c4ccncc4)c3=O)[C@H]1N2Cc1ccccc1 was read as DUX4 inh 3, DUX4 inh difference 4 and DUX4 inh control -1.0.
`C[C@H](CO)N1C[C@H](C)[C@@H](CN(C)C(=O)Nc2ccccc2C(F)(F)F)OCc2cn(nn2)CCCC1=O` gave DUX4 inh -3, DUX4 inh difference -9 and DUX4 inh control 6.1.
`CO[C@@H]1CN(C)C(=O)c2cc(NS(C)(=O)=O)ccc2OC[C@@H](C)N(CC2CCOCC2)C[C@H]1C` gave DUX4 inh 2, DUX4 inh difference -4 and DUX4 inh control 6.4.
For C[C@@H]1CN([C@H](C)CO)C(=O)c2cc(NC(=O)c3ccncc3)ccc2O[C@H]1CN(C)CC1CCCCC1 the results were DUX4 inh 0, DUX4 inh difference -2 and DUX4 inh control 2.5.
Screening C[C@H](NC(=O)C[C@@H]1C[C@H]2c3cc(N(C)C)ccc3O[C@H]2[C@@H](CO)O1)c1ccccc1 returned DUX4 inh 5, DUX4 inh difference 2 and DUX4 inh control 2.9.
O=C(NC[C@H]1N[C@H](CO)[C@@H]1c1ccc(C2=CCCC2)cc1)C1CCC1 was read as DUX4 inh -1, DUX4 inh difference -7 and DUX4 inh control 5.9.
Screening C[C@H]1CN([C@@H](C)CO)C(=O)CCCn2cc(nn2)CO[C@H]1CN(C)S(=O)(=O)c1ccc(F)cc1 returned DUX4 inh -4, DUX4 inh difference -9 and DUX4 inh control 4.8.
Screening C[C@H](CO)N1C[C@H](C)[C@@H](CN(C)Cc2ccc(Cl)c(Cl)c2)Oc2ccc(NC(=O)Nc3cccc4ccccc34)cc2C1=O returned DUX4 inh 3, DUX4 inh difference -1 and DUX4 inh control 4.6.
`CO[C@@H]1CN(C)C(=O)c2ccc(NC(=O)c3ccccc3F)cc2OC[C@H](C)N(C)C[C@@H]1C` gave DUX4 inh 2, DUX4 inh difference 1 and DUX4 inh control 1.5.
`COc1ccccc1S(=O)(=O)N1[C@@H]2CNC[C@H]1C2c1ccc(-c2ccncc2)cc1` (some centres not stated) gave DUX4 inh 24&24, DUX4 inh difference 21&22 and DUX4 inh control 2.3&1.8.
For C[C@H](CO)N1C[C@H](C)[C@@H](CN(C)CC2CC2)Oc2ccc(N(C)C)cc2CC1=O the results were DUX4 inh -5, DUX4 inh difference -2 and DUX4 inh control -3.4.
COc1ccccc1NC(=O)N1[C@@H]2CNC[C@H]1C2c1ccc(-c2ccccc2C)cc1 (some centres not stated) was read as DUX4 inh 17, DUX4 inh difference 14 and DUX4 inh control 3.5.

Screening results from PubChem.
